# Calb biofilm kill: mixture kills Candida albicans biofilm cells; C. albicans biofilm persisters + clotrimazole, fluorescence viability; primary screen in compound mixtures of four per well; inhibition, % at 7.6 µM; hit rate 0.02% among 120,000;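 active means inhibition above 30.3% in the primary screen of four-compound pools, then above 30% when the compound was retested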;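 further: compounds exposed to preformed 24 h biofilms for 48 h; the number belongs to the whole pool; some results filed as inactive read as strong as hits; inactives centre near 12; 0% = biofilm with clotrimazole alone and 100% = kill control; retested singly at about 60 µM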
#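 Test system: C. albicans biofilms. Buffer or medium: RPMI/MOPS medium, pH 7.0. Timing: 48 h compound exposure at 37 °C. Technique: Alamar Blue fluorescence. Evaluation: percent inhibition of biofilm viability.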
# * = called active by the depositor. Only part of the results is shown. The share of hits here may be higher or lower than overall.
SMILES,Calb biofilm kill
CC(=O)c1c(C)[nH]c(C(=O)CN2C(=O)NC(C)(c3ccc(C)cc3)C2=O)c1C (stereo not drawn),15
C/C(=N/OCc1ccc(Br)cc1)c1ccccn1,7
COc1cc(/C=C(\NC(C)=O)C(=O)Nc2ccccc2C)ccc1OC(C)=O,11
CCc1c(O)nc2ccccn2c1=O,20
Cc1c(CCOC(=O)c2cccc([N+](=O)[O-])c2)sc[n+]1CC(=O)c1ccccc1,18
O=C(NC1=C(Nc2ccc(Cl)cc2)C(=O)c2ccccc2C1=O)c1ccccc1,-5
CCOC(=O)c1ccc(NC(=O)CSc2ccc(-c3cccnc3)nn2)cc1,23
CCCCC(=O)NC(=S)Nc1ccc(Cl)c(C(=O)O)c1,3
COc1cc(/C=C/c2cc(C(F)(F)F)[nH]c(=O)n2)cc(OC)c1OC,11
CCCCc1ccc(NC(=O)N2CCNC(=O)C2CC(=O)Nc2ccsc2C(=O)OC)cc1 (stereo not drawn),17
CC(=O)Nc1ccc(OCC[n+]2cccc(C(N)=O)c2)cc1,5
CN1CCN(c2ccc(C(=O)c3ccc(Br)cc3)cc2[N+](=O)[O-])CC1,17
COc1ccc(-n2nnnc2-c2nc3ccccc3s2)cc1,13
Cc1ccc(C(=O)N/C(=C\c2ccco2)C(=O)NCCc2c[nH]c3ccccc23)cc1,19
Cc1ccc(OCCOCCn2cnc3ccccc3c2=O)cc1C,9

# 2 entries from above, field by field.
> CC(=O)Nc1ccc(OCC[n+]2cccc(C(N)=O)c2)cc1
  Calb biofilm kill: 5
> C/C(=N/OCc1ccc(Br)cc1)c1ccccn1
  Calb biofilm kill: 7

# An excerpt from the list above:
SMILES,Calb biofilm kill
CC(=O)c1c(C)[nH]c(C(=O)CN2C(=O)NC(C)(c3ccc(C)cc3)C2=O)c1C (stereo not drawn),15
C/C(=N/OCc1ccc(Br)cc1)c1ccccn1,7
COc1cc(/C=C(\NC(C)=O)C(=O)Nc2ccccc2C)ccc1OC(C)=O,11

# The list continues:
SMILES,Calb biofilm kill
Nc1nc(Nc2cccc(F)c2)nc(N2CCOCC2)c1[N+](=O)[O-],18
CNCC(C)COc1ccccc1OCc1ccccc1 (stereo not drawn),2
c1ccc(Cc2cc[n+](Cc3ccccc3)cc2)cc1,22
CCc1[nH]c(C(=O)O)c(C)c1C(=O)OC,18
CCOC(=O)CC(NC(=O)c1ccccc1)c1ccc(OC)cc1 (stereo not drawn),-2
Cc1ccc(C)c(NNC(N)=S)c1,7
Cc1cccc(CC2S/C(=N/c3ccccn3)NC2=O)c1 (stereo not drawn),22
CN(CC(=O)NC1CCCC1)S(=O)(=O)c1cnc[nH]1,16
CC(=O)/C(N=Nc1ccc(C(=O)O)cc1)=C(\C)O,4
Cc1cc(N2CCN(c3ccc(F)cc3)CC2)nc(-c2ccccc2)n1,12
CC(=O)c1ccc(NC(=O)CN2CCC(NC(=O)C3CCCCC3)CC2)cc1,17
CCOc1ccc(C(=O)NCC(=O)OCC(=O)NC2CCCC2)cc1,7
Cc1ccc(NC(=O)CS(=O)CC(=O)N(CC(=O)NC2CCCC2)c2ccc3c(c2)OCCO3)cc1 (stereo not drawn),13
CC(=O)OCC(=O)Nc1ccccc1OC(F)F,5
O=C(Nc1ccccc1)C1=C[C@H](c2coc3ccccc3c2=O)C[C@H](OCc2ccc(CO)cc2)O1,9

# Structural class: those above containing bromine
SMILES,Calb biofilm kill
C/C(=N/OCc1ccc(Br)cc1)c1ccccn1,7
CN1CCN(c2ccc(C(=O)c3ccc(Br)cc3)cc2[N+](=O)[O-])CC1,17

# The listing continues:
SMILES,Calb biofilm kill
CCCc1nn(C)c2c(=O)[nH]c(-c3cc(S(=O)(=O)N(CCO)CCO)ccc3OCC)nc12,15
COc1cc(OC)c(C(=O)OCC(=O)N2CC(=O)Nc3ccccc32)cc1OC,16
Cn1c(NC(=O)/C=C/c2c(F)cccc2Cl)cc(=O)n(C)c1=O,9
CNC(=O)CNC(=O)Nc1ccc(Cl)c(Cl)c1,13
Cc1cccc(C2=NN(c3ccc(Br)cc3)[C@@H](C(=O)N3CCOC3=O)[C@@H]2c2ccc(F)cc2)c1,15
O=C(Cn1nc(-c2ccccc2)ccc1=O)Nc1cccc(NC(=O)c2ccccn2)c1,10
O=C(Cc1n[nH]c(=O)c2ccccc12)NC(c1ccccc1)c1ccccc1,3
Cc1cc(C)c2oc(=O)cc(CN3CCOCC3)c2c1,6
Nc1ccccc1SCc1cn2ccccc2n1,7
N#C/C(=C(/O)c1ccc([N+](=O)[O-])o1)c1nc2ccccc2[nH]1,11
O=C(COc1ccc2c(c1)CCC2)NCc1cccc(Cl)c1,6
CCNc1nc(NCC)nc(OCC(=O)O)n1,17
CNC(=O)c1csc(Cc2c(Cl)sc3ccc(Cl)cc23)n1,9
COc1ccc(C(=O)N2CCN(C(=O)c3ccc(-c4ccccc4)cc3)CC2)cc1OC,10
CCOC(=O)COc1ccc2c(C)cc(=O)oc2c1C(=O)c1ccccc1,11

# Four compounds picked at random from those above:
SMILES,Calb biofilm kill
CC(=O)Nc1ccc(OCC[n+]2cccc(C(N)=O)c2)cc1,5
CC(=O)OCC(=O)Nc1ccccc1OC(F)F,5
O=C(NC1=C(Nc2ccc(Cl)cc2)C(=O)c2ccccc2C1=O)c1ccccc1,-5
O=C(Nc1ccccc1)C1=C[C@H](c2coc3ccccc3c2=O)C[C@H](OCc2ccc(CO)cc2)O1,9

# Following part:
SMILES,Calb biofilm kill
O=C(Cn1nnc2ccccc2c1=O)N[C@@H](Cc1c[nH]c2ccccc12)C(=O)O,11
Cc1ccc(-n2c(C)n[nH]c2=S)cc1,21
Cc1ccc(NC(=O)COC(=O)c2ccc([N+](=O)[O-])o2)cc1S(=O)(=O)N1CCCCC1,5
O=C(Nc1ccc(-c2nnc3n2CCCCC3)cc1)c1cc2ccccc2o1,9
COc1ccc([N+](=O)[O-])cc1NC(=O)Cc1ccc(Cl)cc1,7
CCn1cc([N+](=O)[O-])nc1C,19
O=C(CN1CCCCC1)n1c2ccccc2c2ccccc21,16
CCN1CCc2c(sc(NC(=S)NC(=O)c3ccco3)c2C(N)=O)C1,11
Cc1onc(-c2ccccc2Cl)c1C(=O)Nc1ccccc1,7
CN(Cc1ccc2nonc2c1)Cc1nc(CC2CC2)no1,6
CNC(=O)c1cc2c(ccc3ccccc32)o1,21
CC1CCCN(c2ccc(C(=O)OCn3nnc4ccccc4c3=O)cc2[N+](=O)[O-])C1 (stereo not drawn),30
CCCc1nn(C)c(C(=O)Nc2ccc(C)c(C)c2)c1Cl,11
COc1ccc(N(CC(=O)NCc2ccccc2)C(=O)Cn2nnc(-c3ccccc3F)n2)cc1OC,4
O=C(O)c1ccc(N/N=C/c2cc3ccccc3nc2Cl)cc1,2
CN1CCN(C(=S)C(=O)NCc2ccccc2)CC1,21
O=C(NC(NC(=S)Nc1ccccc1C(=O)O)C(Cl)(Cl)Cl)c1ccccc1 (stereo not drawn),11
CCCCNC(=O)NNc1nc(Cl)cc(C)c1C#N,17
COc1ccc(NC(=S)c2ccccc2)cc1,21
COc1ccc(CCCc2n[nH]c(=S)o2)cc1C,22
CCOP(=O)(OCC)/C(C#N)=C/c1c[nH]c2ccccc12,6
COCC(C)n1c(C)cc(C(=O)Cn2nc(C(=O)O)c3ccccc3c2=O)c1C (stereo not drawn),20
C=CCn1cc(C(=O)NCc2ccc3c(c2)OCO3)c(=O)c2cc(S(=O)(=O)N(CC)CC)ccc21,3
CC(C)CNC(=O)c1c(F)c(F)c(F)c(F)c1F,18
CCS(=O)(=O)c1ccc2oc(Nc3ccccc3Br)nc2c1,31
Cn1ncc(Cl)c(Oc2ccc(Cl)cc2)c1=O,6
Cc1nc2ccc(NC(=O)c3nn(C(C)C)c(=O)c4ccccc34)cc2s1,19
CC(C)Oc1ccc(C(=O)NCC(=O)O)cc1,22
[O-][n+]1cccc2c(Br)cc(Br)c(O)c21,18
Cc1cc(C(=S)N2CCOCC2)c(C)n1-c1ccc(Cl)cc1,-2
C=CCc1c(C)nc(SC)nc1Nc1ccccc1,18
N#CC(C#N)=C1C=C2C=C(N3CCCCCC3)CCC2CC1 (stereo not drawn),11
COc1ccc(CCNC(=O)c2csc3c2CCCC3)cc1OC,10
CCN1CCN(CCOc2cccc(Cl)c2Cl)CC1,4
O=C(NCc1ccc(Cl)cc1)c1ccc2nc[nH]c2c1,21
COc1ccccc1NC(=O)/C(=C/c1cccc([N+](=O)[O-])c1)c1ccccc1,11
O=C(CCc1nnc(CCCCc2ccccc2)o1)N1CCC(N2CCCC2)CC1,-9
COC(=O)/C=C1\SC(=Nc2ccc(OC)cc2)NC1=O,9
COc1ccc(-c2cc(C3CCN(Cc4ccc([N+](=O)[O-])cc4)CC3)[nH]n2)cc1,34
COc1ccc(S(=O)(=O)NCCc2nnc3ccc(SCc4cccnc4)nn23)cc1,8
COC(=O)c1cc(NS(=O)(=O)c2ccc(N3CCOCC3)c(N)c2)cc(C(=O)OC)c1,5
Cc1ccc(-c2cc(-c3ccc(F)cc3)c(C#N)c(N)n2)o1,14
CC(Oc1ccc(/C=N/NC(=O)Cc2cccc3ccccc23)cc1)C(=O)O (stereo not drawn),27
CCn1c2ccccc2c2cc(CN3CCN(S(=O)(=O)Cc4ccccc4)CC3)ccc21,14
COc1ccc(CC(=O)Nc2ccc3c(C)cc(=O)oc3c2)cc1OC,8
COc1ccccc1NS(=O)(=O)c1cccc(C(=O)N/N=C/c2ccc3c(c2)OCCO3)c1,5
O=C(c1cccc(Oc2ccc([N+](=O)[O-])cc2Cl)c1)N1CCCCC1,19
CCCn1c2c(c(O)c(C(=O)NCCCN(CC)CC)c1=O)CCCC2,5
O=C(OCc1cccc([N+](=O)[O-])c1)c1ccncc1,11
CN(C)S(=O)(=O)c1cc(NC(=O)CN2C(=O)NC3(CCCc4ccccc43)C2=O)ccc1Cl (stereo not drawn),12
CC(C)NC(=O)C1CCN(C2CCN(Cc3nc4ccccc4s3)CC2)CC1,22
N=C1SC(CC(=O)Nc2ccc([N+](=O)[O-])cc2)C(=O)N1c1ccccc1 (stereo not drawn),-1
Cc1ccc(C(=O)N/C(=C/c2cccnc2)C(=O)NCc2ccco2)cc1,12
Oc1ccccc1-c1nc2c3ccccc3c3ccccc3c2[nH]1,5
O=C(O)CCCCCN1C(=O)C(O)=C(C(=O)/C=C/c2ccccc2)C1c1ccc2c(c1)OCO2 (stereo not drawn),-7
CCOC(=O)C1=NN(c2ccc(OC)cc2)C(c2ccccc2)CC1=O (stereo not drawn),16
Nc1nc(SCC(=O)N2CCN(S(=O)(=O)c3ccc(Cl)cc3)CC2)n[nH]1,10
COC(CNc1ncnc2c1cnn2C)OC,21
CC(CCc1ccccc1)NC(=O)COC(=O)c1cccc2ccccc12 (stereo not drawn),13
CCN(CC)c1ccc(/C=N/OCC(=O)N2CCCc3ccccc32)cc1,19
# More compounds.
SMILES,Calb biofilm kill
O=[N+]([O-])c1ccc(CSc2nnc(SCc3ccccc3)s2)cc1,6
Cc1ccccc1C(=O)OC1OC(=O)C(Cl)=C1N1CCOCC1 (stereo not drawn),13
CCCCOc1ccc(NC(=O)Nc2nnc(C)s2)cc1,21
CC(=O)N(C(C)=O)c1nc(-c2ccccc2)cn1/N=C/c1cccc([N+](=O)[O-])c1,10
CC(C)c1ccc(/C=C/c2ccc(=O)n(C)n2)cc1,-30
O=C(CNCc1ccco1)Nc1ccc(N2CCCCCC2)cc1,0
C/C(=N\O)c1ccc(N2C(=O)C3CC=C(Cl)CC3C2=O)cc1 (stereo not drawn),11
COc1ccc(CNC(=O)C2CCCN(Cc3nc(-c4cccc(C)c4)oc3C)C2)cc1 (stereo not drawn),12
Cc1nn(C)c(C)c1CN(Cc1nc(-c2ccc(F)cc2F)oc1C)C1CC1,5
C/C(=N\OCC(=O)Nc1cc(C)cc(C)c1)c1ccc2c(c1)OCCO2,26
COC(=O)C1=C(C)NC(C)=C(C(=O)OC)C1c1ccc(-c2cc(Cl)ccc2Cl)o1,26
CCOC(=O)CN1N=C(/C=C/c2ccc(OCC)cc2)CCC1=O,10
CSc1nc2nc3c(cc2c(=O)n1-c1ccc(C)cc1)COC(C)(C)C3,20
C=CCN(CC=C)CCCOc1ccc(Br)cc1Cl,1
Cc1nc2cc(NC(=O)NC(C)(C)C)ccc2n1C,21
COc1ccc(NS(=O)(=O)c2ccc(O)c(NC(=O)c3ccc(S(=O)(=O)N4CCCCCC4)cc3)c2)cc1,4
CCS(=O)(=O)N1CCN(S(=O)(=O)c2ccccc2[N+](=O)[O-])CC1,6
CCOC(=O)c1nnn(-c2ccccc2)c1C,18
COc1ccc(CNC(=O)CCCn2nc(C)c([N+](=O)[O-])c2C)cc1OC,7
COCCCNC(=S)N1CCN(Cc2ccc3c(c2)OCO3)CC1,21
CCNc1nc(-c2cc3ccccc3o2)cs1,13
Cc1cc(=O)oc2cc(NC(=O)C3CCCC3)ccc12,9
COc1cccc(Nc2nnc(SCC(=O)N3CC(=O)Nc4ccccc43)s2)c1,7
Cc1ccc(-n2c(SCC(=O)Nc3ccc4c5c(cccc35)CC4)nc(O)cc2=O)cc1,18
O=C(O)CC(NC(=O)Nc1ccccc1)c1ccc(OC2CCCC2)cc1 (stereo not drawn),-2
Cc1cc(N2CCN(c3ccccc3)CC2)nc(N)n1,14
Cc1ccc(C2(O)CN(c3ccccc3C)C3=[N+]2CCS3)cc1 (stereo not drawn),14
COc1cc(S(=O)(=O)N2CCCCC2)ccc1NC(=O)c1ccccc1Cl,-6
COc1ccccc1NC(=O)C[n+]1ccccc1,15
CCN1CCN(c2cc(C)c3cc(NC(=S)N4CCCCC4)ccc3n2)CC1,7
Cc1ccc(S(=O)(=O)NC(CC(=O)NCC2CCCO2)c2ccccc2)cc1 (stereo not drawn),7
CCN1C(=O)/C(=C\C(=O)c2cccs2)c2cc(Br)ccc21,17
CC(C)(C)OC(=O)N1CCC2(CC1)C(C#N)=C(N)OC1=C2C(=O)CCC1,10
CN(C)C(=O)CCCCCCCCC(=O)N(C)C,21
